# Bioassay records deposited in PubChem BioAssay by SRMLSC.
# H5N1 CPE = antiviral screen in MDCK cells, H5N1 avian flu | 0.07% of 96,000 active | inhibition, % at 50 µM | AID 740 | cytopathic effect, luminescence, 72 h; stronger effect = higher value; no value below 0 was filed and about half of the inactive calls have no number; reference of the scale not given here; in the data active = inhibition above about 25%
# Numbers without * were called inactive; i = inactive. This is a subset; the hit share may differ from the screen's.
SMILES,H5N1 CPE
O=C(CN1C(=O)CCS(=O)(=O)c2ccccc21)Nc1cccc(Cl)c1,0.8
Cc1cc(C)nc(/N=C(\N)Nc2cc([N+](=O)[O-])ccc2C)n1,9.0
O=C(CNc1ccc(Br)cc1)c1ccccc1,i
Cc1ccc(S(=O)(=O)CC#CCOC(=O)c2ccc([N+](=O)[O-])cc2)cc1,4.8
CCOc1ccc(NC(=O)C2CC(=O)N(c3cc(C)cc(C)c3)C2)cc1 (stereo not drawn),1.0
Cc1cc(C)nc(NCCCc2ccccc2)n1,i
COc1ccc(C2=Nc3cccc4cccc(c34)N2)cc1,1.6
CC1CCCCN1CC(=O)Nc1sccc1C#N (stereo not drawn),0.0
Cn1c(=O)c2c(nc(N3CCCCCC3)n2CCSc2nc3ccccc3o2)n(C)c1=O,0.7
Cc1ccc(NC(=O)c2csc(-c3ccccc3)c2C)cc1,i
O=C1NC2(CCCCC2)N=C1c1ccc(Br)cc1,0.2
COc1cccc(NC(=O)CN(c2ccc(C)cc2)S(=O)(=O)c2c(C)nn(C)c2C)c1,0.0
COCc1c(C(=O)OCC(=O)N2c3ccccc3NC(=O)C2(C)C)oc2ccccc12,0.8
Cc1ccc(NN2C(=O)C=C(c3ccc(Cl)cc3)C2=O)cc1,i
c1ccc(Nc2nn[nH]n2)cc1,0.4
O=C(Nc1ccc2oc(=O)ccc2c1)c1ccco1,0.4
N#CCCSCc1ccc(OCC(=O)O)cc1,i
CC(=O)Nc1ccc(-c2cc3ccccc3o2)cc1,2.4
Cc1nn(-c2ccccc2)c(N)c1C(O)(CSc1nccn1C)C(F)(F)F (stereo not drawn),0.5
COc1ccc(C(C)C)cc1S(=O)(=O)n1cnc(C)c1,1.0
CCNC(=S)N(Cc1ccc2c(c1)OCO2)C1CC(=O)N(c2ccc(OC)cc2)C1=O (stereo not drawn),i
O=C(N1CCOCC1)C1(c2ccccc2)CCCCC1,2.4
CCn1cc(Br)c(C(=O)NCc2ccco2)n1,5.8
Cc1cc(C)nc(SCc2cccc(C(=O)O)c2)n1,1.0
Cc1cc(OCCOCCN2CCCC2)ccc1C(C)C,i
CCOC(=O)C1CCCCN1C(=O)CCc1c(C)nc2cc(-c3ccccc3)nn2c1C (stereo not drawn),4.2
Cc1ccc(S(=O)(=O)N2CCN(C(=O)COc3ccc(NC(=O)c4ccco4)cc3)CC2)cc1,i
CCOC(=O)c1nc(-c2ccccc2)oc1N(C)C,i
Cc1cccc(NC(=O)NC(C)C(c2cccs2)N2CCOCC2)c1 (stereo not drawn),1.5
O=C(C(Cc1ccccc1)N1C(=O)C2C3C=CC(C3)C2C1=O)N1CCCCC1 (stereo not drawn),i
Cc1ccc(CN(Cc2cc3cc4c(cc3[nH]c2=O)OCCO4)Cc2nnnn2Cc2ccco2)cc1,i
Cn1c(SCC(=O)NCCN2C(=O)CSC2=O)nc2ccccc2c1=O,1.1
Cc1cc(C(=O)Nc2nc3c(s2)CCCC3)cs1,i
Cc1cc(C)nc(/N=C2/NC(=O)CS2)n1,0.6
CCOC(=O)c1sc(NC(=O)/C=C/c2cnn(C)c2C)c(C(=O)OCC)c1C,0.4
CCC1(N(C(C)=O)c2ccc(OC)cc2)C(=O)c2ccccc2C1=O,i
COC(=O)CN(C(=S)Nc1ccc(F)cc1)C1CC(=O)N(c2ccc(OC)cc2)C1=O (stereo not drawn),i
CNC(=O)c1csc(-c2ccncc2)n1,2.1
CC(C)CCn1c(CN2CCN(Cc3ccccc3)CC2)nc2c1c(=O)[nH]c(=O)n2C,0.4
CCCN(CC1CC1)C(=O)COc1ccccc1C(=O)NCc1ccccc1,i
CC(C)c1ccc(C2NC(C(=O)O)CS2)cc1 (stereo not drawn),0.3
Cc1nc(-c2cccc(NS(=O)(=O)c3ccccc3)c2)cs1,0.8
Cc1onc(-c2ccccc2Cl)c1C(=O)NCc1ccccn1,i
Cc1nc(SCC#N)c2c3c(sc2n1)CCC3,i
S=C1SCN(CCN2CCOCC2)CN1Cc1ccccc1,2.7
CCCc1cc(-n2cnc3ccccc32)n2c(nc3ccccc32)c1C#N,i
COc1ccc(C)cc1S(=O)(=O)N1CCN(S(=O)(=O)c2cc(C)ccc2OC)C(C)C1 (stereo not drawn),3.9
Cc1cc(C(=O)CN2C(=O)NC(c3ccccc3)(c3ccccc3)C2=O)c(C)n1Cc1ccco1,i
C[C@H](NC(=O)Nc1ccccc1F)C(=O)O,0.1
CCc1n[nH]c2c1/C(=N\O)CC(C)(C)C2,0.7
CCOC(=O)/C(C#N)=C1/C=CN(c2ccccc2)C=N1,0.6
Cc1ccc(C)c(NC(=O)CCC(=O)N/N=C/c2ccc[nH]2)c1,i
CCN(N=Nc1cccc([N+](=O)[O-])c1)c1cccc([N+](=O)[O-])c1,0.9
CCOC(=O)C1=C(CSc2nc(-c3ccncc3)ccc2C#N)OC(N)=C(C#N)C1c1ccc(OC)cc1 (stereo not drawn),i
COc1ccc(NC(=O)CSc2[nH]c(=O)cc(C)c2C#N)cc1OC,0.4
N#CC1=C(N)Oc2c(oc(CO)cc2=O)C12C(=O)Nc1ccc(Cl)cc12 (stereo not drawn),i
c1ccc(CN2CCN(c3nc(-c4ccccc4)nc4ccccc34)CC2)cc1,i
CC(C)Sc1nc(N2CCCC2)c2c(c1C#N)CC(C)(C)OC2,2.1
O=C(Nc1ccc(Cl)c(Cl)c1)N1CC=CCC1,i
Cc1cc(C)cc(NC(=O)C2CCCN(c3nccc(C)n3)C2)c1 (stereo not drawn),1.9

# The results go on.
SMILES,H5N1 CPE
Cc1ccccc1N1CCN(C(=O)c2ccccc2NC(=O)/C=C\C(=O)O)CC1,i
O=S(=O)(NCCc1csc(-c2cccnc2)n1)c1ccc2c(c1)OCCO2,0.8
COc1cc(OC)c(NC(=O)c2c(-c3ccccc3)noc2C)cc1Cl,0.2
Cc1cc(NC(=O)C2CCN(S(=O)(=O)Cc3ccccc3)CC2)ccc1-n1cnnn1,i
CCOc1cc2oc(=O)c3c(c2cc1Cl)CCC3,0.6
Cc1ccc(N(CC(=O)NCc2ccc3c(c2)OCO3)S(=O)(=O)c2c(C)noc2C)cc1,0.8
COc1ccccc1-c1nc(-c2ccc(C)nc2OC)no1,i
Cc1ccc(C)c(OCCCC(=O)Nc2ccc(N3CCOCC3)cc2)c1,0.6
CN(C)c1nc(NCc2ccccc2)nc(SCC(=O)Nc2ccc(Cl)c(Cl)c2)n1,11
O=C(CSc1nc2ccccc2c(=O)n1CCC(=O)N1CCCCC1)NCc1ccccc1,0.8
CCCc1cc(=O)oc2cc(C)cc(OC(=O)c3ccco3)c12,i
N#CC1=C(N)OC2=C(C(=O)CCC2)C1CCc1ccccc1 (stereo not drawn),0.3

# Retrieved by structure from the entries so far:
SMILES,H5N1 CPE
CCCc1cc(=O)oc2cc(C)cc(OC(=O)c3ccco3)c12,i
Cc1ccccc1N1CCN(C(=O)c2ccccc2NC(=O)/C=C\C(=O)O)CC1,i
O=C(CSc1nc2ccccc2c(=O)n1CCC(=O)N1CCCCC1)NCc1ccccc1,0.8
O=S(=O)(NCCc1csc(-c2cccnc2)n1)c1ccc2c(c1)OCCO2,0.8
COc1cc(OC)c(NC(=O)c2c(-c3ccccc3)noc2C)cc1Cl,0.2

# Other compounds
SMILES,H5N1 CPE
O=C(Oc1cccnc1)c1ccco1,i
Oc1ccc(Br)cc1CN1CCN(c2ccccc2)CC1,1.5
CCOC(=O)C1CCN(C(=O)c2n[nH]c(=O)c3ccccc23)CC1,i
CC(C)(C)CC(=O)Nc1nnc(-c2cccs2)s1,0.6
O=c1[nH]c(CSc2nnc(NCCCN3CCOCC3)s2)nc2cc(Cl)ccc12,0.1
Cc1cc(Nc2ncc(Cl)cc2Cl)n(-c2ccccn2)n1,i
O=C1C=C(NCc2ccco2)CC(c2ccc(Cl)cc2)C1 (stereo not drawn),0.2
Cc1ccn2cc(C(=O)NC3CCN(Cc4ccccc4)CC3)nc2c1,1.0
C=CCN(CC=C)Cc1ccc(C(=O)OC)o1,1.1
Cc1ccc(-c2ccccc2NC(=O)C2C3C=CC(C3)C2C(=O)O)o1 (stereo not drawn),0.0
O=P(O)(O)C(O)C(F)(F)C(F)(F)C(F)(F)C(F)F (stereo not drawn),0.4
Cc1cc(OC(=O)N2CCCCC2)cc(C)c1Cl,1.8
COC(=O)c1ccnc(/C=N/O)c1,4.2
CCOc1cc(C)nc(N2CCC(C(=O)Nc3ccccc3OCC)CC2)n1,1.1
COc1ccc(C(=O)C(CN2CCCC2)c2ccccc2)cc1 (stereo not drawn),8.3
c1ccc([C@H]2CC3C[C@@H](c4ccccc4)N2O3)cc1,0.8
COc1ccc(S(=O)(=O)NC(C)C(=O)Nc2cccc(C(C)=O)c2)cc1 (stereo not drawn),1.9
CC(C)N(C(=O)COC(=O)c1ccccc1C(=O)N1CCN(c2ccc(F)cc2)CC1)C(C)C,0.8
N/C(=N\OC(=O)Cc1cccc2ccccc12)c1ccccn1,1.1
COC(=O)c1ccc(/C=N/NC(=O)c2cccc(F)c2)cc1,i
C=CCSc1nnc(Cc2cc(=O)[nH]c(=O)[nH]2)n1-c1cc(C)ccc1C,i
COc1cc(NC(=O)c2cc(C(C)C)on2)cc(OC)c1OC,0.7
O=C(/C=C/Nc1cccc([N+](=O)[O-])c1)c1cccs1,i
COc1cc(NC(=O)CN2C3CCC2CC(O)(c2cccnc2)C3)cc(OC)c1 (stereo not drawn),1.2

# Copied from the list.
# Reading for COC(=O)c1ccnc(/C=N/O)c1 in H5N1 CPE: 4.2
# Reading for COc1cc(NC(=O)c2cc(C(C)C)on2)cc(OC)c1OC in H5N1 CPE: 0.7

# Carrying on.
SMILES,H5N1 CPE
O=C(Nc1ccccc1N1CCOCC1)c1ccc2c(c1)C(=O)N(Cc1ccncc1)C2=O,i
O=C(COc1ccc(F)cc1)Nc1nccs1,0.9
CCOC(=O)C(NC(=O)Nc1ncccn1)(Oc1ccccc1)C(F)(F)F (stereo not drawn),0.6
CCOC(=O)c1nc(C)n(-c2ccc(Cl)cc2Cl)n1,i
CCOC(=O)N1CCN(C(=O)CN(Cc2ccc(Cl)cc2)S(=O)(=O)c2ccc(C)cc2)CC1,i
Cn1c(N)c(C(=O)CCl)c(=O)n(C)c1=O,0.8
C=CCn1cc(C(=O)NCc2ccco2)c(=O)c2cc(S(=O)(=O)N3CCCCCC3)ccc21,0.3
COc1cccc(/C=N/n2c(-c3cccs3)n[nH]c2=S)c1,i
COCCCn1c(SCc2nc3ccccc3c(=O)[nH]2)nc2ccccc2c1=O,i
CCN(CC(=O)NC(=O)NC1CCCCC1)Cc1nc2ccccc2c(=O)[nH]1,0.9
COc1ccc(Cl)cc1C(=O)NNC(=S)NC(=O)c1cc(-c2ccc(Cl)cc2)nc2ccccc12,0.7
N#CCC(CNc1ncc(C(F)(F)F)cc1Cl)OC(=O)c1cccc(C(F)(F)F)c1 (stereo not drawn),0.1

# The list goes on; it opens with the 6 that closed the last part.
SMILES,H5N1 CPE
C=CCn1cc(C(=O)NCc2ccco2)c(=O)c2cc(S(=O)(=O)N3CCCCCC3)ccc21,0.3
COc1cccc(/C=N/n2c(-c3cccs3)n[nH]c2=S)c1,i
COCCCn1c(SCc2nc3ccccc3c(=O)[nH]2)nc2ccccc2c1=O,i
CCN(CC(=O)NC(=O)NC1CCCCC1)Cc1nc2ccccc2c(=O)[nH]1,0.9
COc1ccc(Cl)cc1C(=O)NNC(=S)NC(=O)c1cc(-c2ccc(Cl)cc2)nc2ccccc12,0.7
N#CCC(CNc1ncc(C(F)(F)F)cc1Cl)OC(=O)c1cccc(C(F)(F)F)c1 (stereo not drawn),0.1
Cc1cc(Oc2nnnn2-c2ccccc2)ccc1Cl,i
CCN1CCN(Cc2c(O)ccc3c(=O)c(-c4ccc(OC)c(OC)c4)c(C)oc23)CC1,0.9
Cc1cccc(Nc2nnc(SCc3cn4ccsc4n3)s2)c1,i
Cn1c(=O)c2c(nc(SCC(=O)N3CCc4ccccc4C3)n2C)n(C)c1=O,2.7
CC(C)CN1C(=O)NC(NC(=O)c2cccs2)(C(F)(F)F)C1=O (stereo not drawn),0.0
CSCCC(N=Cc1c(O)n(-c2ccc(F)cc2)c(=O)[nH]c1=O)C(=O)O (stereo not drawn),i
COc1ccc(NC(=O)C23CC4CC(C2)CC(n2cnc(Br)n2)(C4)C3)cc1OC,i
CC1C/C(=N\NC(=S)NCc2ccccc2)CC(C)(C)C1 (stereo not drawn),i
CCOC(=O)CNc1c(-c2ccccc2)nc2ccc(Cl)cn12,0.8
CC1=C(C#N)C(Nc2cc(C)ccn2)(C(F)(F)F)C(=O)N1 (stereo not drawn),0.7
CC1CC(=O)N(CC(=O)NCc2ccc3c(c2)OCO3)c2ccccc2S1 (stereo not drawn),0.9
CCSc1nc2n(n1)C(c1cccc(F)c1)C1=C(CCCC1=O)N2 (stereo not drawn),i
CCOC(=O)N(CC)c1ccc(C(O)(C(=O)OCC)C(F)(F)F)cc1 (stereo not drawn),i
O=C(/C=C(\c1ccc(Cl)cc1)n1cncn1)c1ccc(Cl)cc1,i
CCS(=O)(=O)N1CCN(c2cccc(C)c2C)CC1,i
CCn1ncc(/C=N/NC(=O)c2ccc3c(c2)OCO3)c1C,i
O=C(Nc1ccon1)c1cc2c(s1)CCCC2,0.8
N#Cc1ccccc1NC(=O)Nc1cccs1,1.6
Cc1ccc(-c2csc3nc(C)n(-n4c(C)ccc4C)c(=O)c23)o1,0.6
CC(C)(C)OC(=O)N1CCN(c2ccc(NC(=O)Cn3nnc(-c4ccccc4)n3)cc2)CC1,i
CC(C)C(CCNC(=O)CN1C(=O)c2ccccc2C1=O)c1ccco1 (stereo not drawn),0.5
O=c1c2cccnc2[nH]c(=S)n1CCCN1CCN(c2ccc(F)cc2)CC1,i
O=C(Cc1ccc(F)cc1)c1ccc(O)cc1O,0.1
CCn1c2ccc(/C(C)=N\O)cc2c2cc(/C(C)=N\O)ccc21,2.5
CCOCc1cnc(C)nc1NCC(=O)c1c(C)n(C)c2ccc(OC)cc12,i
O=C(CN(C(=O)Cn1nnc(-c2ccc(F)cc2)n1)C1CCCC1)NC1CCCC1,i
COc1ccc(OC)c(CNn2c(-c3cccc(C)c3)nc3ccccc3c2=O)c1,8.8
